ClpP mod: qHTS Assay for Activators of ClpP | ATP-dependent Clp protease proteolytic subunit (Bacillus subtilis (strain 168)), P80244 | purified B. subtilis ClpP, FRET peptide cleavage, 20 min | 1.9% of 340,000 active | Potency, µM (titrated, usually from 57.5 µM), for the others: at the highest dose activity change, negative = active; active = well fitted falling curve with a large enough effect; inconclusive = small, poorly fitted or top-dose-only effect; inactive = no such curve, though single readings can be large or run the other way; also: the source files actives as falling curves though it sought activators and does not explain the sign; nearly all actives have a fitted effect of over 65% in size; many hits overshoot -100%
Target sequence (P80244 whole entry, looked up): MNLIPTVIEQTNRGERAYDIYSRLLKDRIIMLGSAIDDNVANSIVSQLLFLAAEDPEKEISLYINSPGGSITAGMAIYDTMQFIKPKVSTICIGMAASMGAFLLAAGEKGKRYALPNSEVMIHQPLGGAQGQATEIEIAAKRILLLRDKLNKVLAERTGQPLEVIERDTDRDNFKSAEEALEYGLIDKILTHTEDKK
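ClpP 10 microg/mL final, pH 8 Tris/KCl buffer with BSA, glycerol, Tween-20; compound pinned in; FRET-FV substrate; RT 20 min; Ex320/Em430; ΔFRET vs ADEP 5.8 microM, DMSO, no enzyme.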
* = called active by the depositor. Potency is read from the fitted curve at half-maximal effect.

What do the screens show for `CN1CCN(c2ccc(CNC(=O)c3ccc(-c4ccnn4C)c4ccoc34)cc2)CC1`?
ClpP mod: -1.1%

What do the screens show for `O=C(OCc1ccccc1)N1CCN(C(c2ccnc3ccccc23)c2nnnn2-c2ccc3c(c2)OCCO3)CC1` (stereo not drawn)?
ClpP mod: -3.1%

Results for CC1(C(=O)N2Cc3ccccc3C2)CCN1C(=O)Cc1ccccc1 (stereo not drawn) ?
ClpP mod: -3.3%

Results for CNc1ccc(/C=C/c2ccnc3ccccc23)cc1 ?
ClpP mod: 1.0%

Results for COc1ccc(NC(=O)c2cc(C3CCCCN3C(=O)Cc3ccc(N(C)C)cc3)on2)c(C)c1 (stereo not drawn) ?
ClpP mod: -5.2%

How did N#Cc1nc(-c2ccc(OCc3ccc(Cl)cc3)cc2)oc1N1CCCCC1 do in these assays?
ClpP mod: 4.2%

What do the screens show for `CCOC(=O)C1(C)CCCN1C(=O)c1cccc(OC)c1` (stereo not drawn)?
ClpP mod: -0.8%

Results for CCCNC(=O)C1(C)CCN1C(=O)C/C=C/c1ccccc1 (stereo not drawn) ?
ClpP mod: -2.0%

What do the screens show for `Cc1ccccc1-c1nc(NCCN(C)C)nc2ccsc12`?
ClpP mod: 4.0%

Results for Nc1[nH]c(C(=O)c2ccccc2)c(-c2ccc(Br)cc2)c1C(=O)c1ccc(Br)cc1 ?
ClpP mod: 2.2%

Results for CCCCCCCCN1C(=O)[C@H](CC(=O)NCc2cccc3ccccc23)C[C@@]2(C(=O)OCC)CCC=C12 ?
ClpP mod: -7.7%

What do the screens show for `COc1cc2c(NC3CCN(C)CC3)nc(N3CCCN(C)CC3)nc2cc1OCC1CCCNC1` (stereo not drawn)?
ClpP mod: 4.3%

Results for CC(=O)NC(c1ccc(F)c(F)c1)c1nc(-c2ccc3c(c2)OCO3)cs1 (stereo not drawn) ?
ClpP mod: -1.0%

What do the screens show for `O=C1NC[C@H](Cc2ccc(O)cc2)N(C[C@@H]2CCCN2C[C@H](Cc2ccccc2)N2C[C@H](Cc3ccccc3)N(CC3CCCCC3)C(=O)C2=O)C1=O`?
ClpP mod: -3.7%

What do the screens show for `CC(=O)Nc1ccc(CNc2nc3cc(-c4ccc(F)cc4)sc3c(=O)n2C)cc1`?
ClpP mod: inconclusive

Results for O=C1NC[C@H](CCCCN2C[C@@H](Cc3ccccc3)N(CC3CCCCC3)C(=O)C2=O)N(CCC2CCCCC2)C1=O ?
ClpP mod: -4.5%

Results for C=CCNc1ncnc2c1ncn2[C@H]1CN(Cc2ccccc2)C[C@@H](CO)O1 ?
ClpP mod: 0.3%

How did COc1cc(OC)nc(Nc2nc(C(N)Cc3ccc(C(F)(F)F)cc3)cs2)n1 (stereo not drawn) do in these assays?
ClpP mod: -2.9%

What do the screens show for `CNc1c(Cl)cc(C=O)cc1Cl`?
ClpP mod: -3.6%

Results for COc1cc(CNc2ncnc3c2ncn3[C@H]2CN(Cc3cccc4ccccc34)C[C@@H](CO)O2)cc(OC)c1OC ?
ClpP mod: -0.9%

How did O=C(Nc1ccccc1Cl)c1cc(C2CCCN(C(=O)CCCc3ccccc3)C2)on1 (stereo not drawn) do in these assays?
ClpP mod: -9.2%

Results for CC1=C(C(=O)N(C(C)C)C(C)C)CC(CC(=O)NCc2cccs2)C(=O)N1Cc1ccc(C(C)(C)C)cc1 (stereo not drawn) ?
ClpP mod: -1.5%

What do the screens show for `CCOC(=O)C1CCCN(C(=O)c2cc(C(C)(C)C)nn2C)CC1` (stereo not drawn)?
ClpP mod: -0.3%

Results for Cc1cccc(C)c1NC(=O)C(c1ccccc1)N1CCN(C)CC1 (stereo not drawn) ?
ClpP mod: 2.2%

For reference, some entries already given.
Results for CC(=O)NC(c1ccc(F)c(F)c1)c1nc(-c2ccc3c(c2)OCO3)cs1 (stereo not drawn) ?
ClpP mod: -1.0%

What do the screens show for `O=C1NC[C@H](Cc2ccc(O)cc2)N(C[C@@H]2CCCN2C[C@H](Cc2ccccc2)N2C[C@H](Cc3ccccc3)N(CC3CCCCC3)C(=O)C2=O)C1=O`?
ClpP mod: -3.7%

What do the screens show for `CC(=O)Nc1ccc(CNc2nc3cc(-c4ccc(F)cc4)sc3c(=O)n2C)cc1`?
ClpP mod: inconclusive

Results for O=C1NC[C@H](CCCCN2C[C@@H](Cc3ccccc3)N(CC3CCCCC3)C(=O)C2=O)N(CCC2CCCCC2)C1=O ?
ClpP mod: -4.5%

Results for C=CCNc1ncnc2c1ncn2[C@H]1CN(Cc2ccccc2)C[C@@H](CO)O1 ?
ClpP mod: 0.3%

How did COc1cc(OC)nc(Nc2nc(C(N)Cc3ccc(C(F)(F)F)cc3)cs2)n1 (stereo not drawn) do in these assays?
ClpP mod: -2.9%

What do the screens show for `CNc1c(Cl)cc(C=O)cc1Cl`?
ClpP mod: -3.6%

Results for COc1cc(CNc2ncnc3c2ncn3[C@H]2CN(Cc3cccc4ccccc34)C[C@@H](CO)O2)cc(OC)c1OC ?
ClpP mod: -0.9%

How did O=C(Nc1ccccc1Cl)c1cc(C2CCCN(C(=O)CCCc3ccccc3)C2)on1 (stereo not drawn) do in these assays?
ClpP mod: -9.2%

Results for CC1=C(C(=O)N(C(C)C)C(C)C)CC(CC(=O)NCc2cccs2)C(=O)N1Cc1ccc(C(C)(C)C)cc1 (stereo not drawn) ?
ClpP mod: -1.5%

What do the screens show for `CCOC(=O)C1CCCN(C(=O)c2cc(C(C)(C)C)nn2C)CC1` (stereo not drawn)?
ClpP mod: -0.3%

Results for Cc1cccc(C)c1NC(=O)C(c1ccccc1)N1CCN(C)CC1 (stereo not drawn) ?
ClpP mod: 2.2%

(more compounds)
What do the screens show for `COC(=O)[C@@]12C[C@@H](CC(=O)N3CCOCC3)C(=O)N(CCc3ccc(OC)c(OC)c3)C1=CCC(C)(C)C2`?
ClpP mod: 3.0%

Results for COc1cccc(-c2cnc3c(NC=O)cc(-c4ccncc4)cn23)c1 ?
ClpP mod: -5.4%

What do the screens show for `COc1ccc(C2Nc3ccccc3C(=O)N2c2cccc3ccccc23)cc1COc1c(C)cccc1C` (stereo not drawn)?
ClpP mod: 4.7%

Results for C=CCn1nc(C(=O)Nc2ccc(OC)cc2)cc1-c1sc(NC(=O)c2ccccc2)nc1C ?
ClpP mod: inconclusive

Results for CC(C)C[C@@H](CN1CCC[C@H]1CN1C(=O)C(=O)NC[C@@H]1Cc1ccc(O)cc1)N1C[C@H](Cc2ccccc2)N(CC2CCCCCC2)C(=O)C1=O ?
ClpP mod: -2.7%

How did CC1(C(=O)NC2CCN(Cc3ccccc3)CC2)CCN1CCc1ccccc1 (stereo not drawn) do in these assays?
ClpP mod: -1.3%

What do the screens show for `CCCc1nc2c(C)cc(Br)cn2c1Cc1ccccc1`?
ClpP mod: -4.8%

How did CC(=O)N/C(=C/c1ccccc1)c1ccncc1 do in these assays?
ClpP mod: -17%

What do the screens show for `CCCCN(C)C(=O)c1[nH]c(C(F)(F)F)nc1-c1ccccc1`?
ClpP mod: 2.3%

Results for CC1(c2nnnn2Cc2ccccc2)CCC(=O)N1Cc1cccs1 (stereo not drawn) ?
ClpP mod: 3.0%

How did Cc1ccc(S(=O)(=O)N2CCC(=O)N([C@H](COCc3ccc(Cl)c(Cl)c3)Cc3ccccc3)CC2)cc1 do in these assays?
ClpP mod: 0.4%

Results for C[N+](C)(C)c1ccc(/C=C/c2ccnc3ccccc23)cc1 ?
ClpP mod: inconclusive

Results for CC1(C(=O)NS(=O)(=O)c2ccc(Cl)cc2)CCN1C(=O)Cc1ccc(-c2ccccc2)cc1 (stereo not drawn) ?
ClpP mod: -0.3%

How did Cc1ccccc1S(=O)(=O)NC(=O)C1(C)CCN1C(=O)Cc1ccccc1Cl (stereo not drawn) do in these assays?
ClpP mod: -0.3%

Results for COC(=O)[C@]12CCCCC=C1N(Cc1ccccc1)C(=O)[C@H](CC(=O)NCCc1ccccc1OC)C2 ?
ClpP mod: -0.7%

Results for COc1ccc(-c2oc3c(c2C#CCCCCO)C(OCCO)CC3)cc1 (stereo not drawn) ?
ClpP mod: -15%

Results for CC1(C(=O)Nc2ccc3ccccc3c2)CCC(=O)N1C1CCN(Cc2ccccc2)CC1 (stereo not drawn) ?
ClpP mod: -0.6%

What do the screens show for `O=C(NCc1cc(Cl)cc(Cl)c1)c1csc([C@@H]2O[C@H](CO)[C@H](O)[C@H](O)[C@H]2O)n1`?
ClpP mod: -0.6%

What do the screens show for `Cc1ccc2nc(-c3ccccn3)c(N)n2c1`?
ClpP mod: -3.7%

What do the screens show for `COc1ccc(C(=O)C(=O)N2CCN(c3ccc(C)cc3)CC2)cc1OC`?
ClpP mod: -0.3%

What do the screens show for `O=C(NC1CCCCC1)C(CCc1ccccc1)n1c(=O)c(-c2ccccc2)nc2ccccc21` (stereo not drawn)?
ClpP mod: inconclusive

Results for Cc1ccc(NC(=O)C2(C)CCN2CCc2ccccc2)cc1 (stereo not drawn) ?
ClpP mod: 1.8%

How did CCCOc1ccc(F)cc1-c1cc(C(=O)Nc2ccc(OC)c(OC)c2)[nH]n1 do in these assays?
ClpP mod: -4.8%

How did CCCCCNC(=O)C(C1CC1)n1c(=O)c(-c2ccccc2)nc2ccccc21 (stereo not drawn) do in these assays?
ClpP mod: 4.6%

How did COCCNC(=O)C1(C)CCCN(Cc2ccc(Cl)nc2)C1 (stereo not drawn) do in these assays?
ClpP mod: 2.4%

Results for COc1ccc(S(=O)(=O)N2CCCCC2c2cc(C(=O)NCc3ccccc3)no2)cc1 (stereo not drawn) ?
ClpP mod: -0.1%

What do the screens show for `CSc1ccc(CN2CCC2(C)C(=O)NCc2ccccc2Br)cc1` (stereo not drawn)?
ClpP mod: 1.2%

How did COc1ccccc1/C=C/c1cnccn1 do in these assays?
ClpP mod: -14%

How did COc1ccc2nccc(/C=C/c3ccc(N(C)C)cc3)c2c1 do in these assays?
ClpP mod: 2.3%

What do the screens show for `COc1cccc(CNC(=S)Nc2ccc3c(c2)c(=O)n(C)n3Cc2ccc(F)cc2)c1`?
ClpP mod: 4.0%

How did COc1ccc(-n2nnnc2C(c2ccccc2)N2CCN(C/C=C/c3ccccc3)CC2)cc1 (stereo not drawn) do in these assays?
ClpP mod: -6.2%

How did COc1ccc2c(c1)c[n+](C)c1c3cc(OC)c(OC)cc3ccc21 do in these assays?
ClpP mod: -14%

What do the screens show for `COc1ccc(CC(N)c2csc(NC(=O)Nc3ccccc3Oc3ccccc3)n2)cc1` (stereo not drawn)?
ClpP mod: 0.4%

Results for Cn1c(=O)n(C)c2cc(CNC(=O)[C@H]3O[C@@H](n4ccc(=O)[nH]c4=O)[C@H](O)[C@@H]3O)ccc21 ?
ClpP mod: -1.5%

Results for CCCCCCCCCCCCCCCC[n+]1ccc(/C=C/c2c[nH]c3ccccc23)c2ccccc21 ?
ClpP mod: 1.3%

What do the screens show for `Brc1cccc[n+]1CCCCCC[n+]1ccccc1Br`?
ClpP mod: -2.2%

Results for O=C(C(=O)N1CCC(Cc2ccccc2)CC1)c1cccc(Br)c1 ?
ClpP mod: 1.2%

How did CCCCN(C=O)c1c(CC)nc2ccc(C(=O)NCCOc3ccc(OC)cc3)cn12 do in these assays?
ClpP mod: -4.2%

How did Cc1ccc(-c2nc(-c3cc4cc(Cl)ccc4oc3=O)sc2C)cc1 do in these assays?
ClpP mod: -4.9%

Results for COc1ccc(N2c3ccccc3CN(Cc3ccccc3)[C@@H](C)[C@H]2Cc2ccc(-c3ccccc3)cc2)cc1 ?
ClpP mod: -16%

How did COc1ccc(C(=O)c2[nH]c(N)c(C(=O)NCCc3c[nH]c4ccccc34)c2-c2ccccc2Br)cc1 do in these assays?
ClpP mod: -3.2%

Results for CCOC(=O)C1(C)CCN1C(=O)c1ccc2ccccc2c1 (stereo not drawn) ?
ClpP mod: -14%

Results for O=C(Nc1nnc([C@@H]2C[C@H](O)[C@@H](CO)O2)s1)c1cccc(Oc2ccccc2)c1 ?
ClpP mod: -7.9%

What do the screens show for `Cc1cccc(C)c1NC(=O)C1(C)CSCC(=O)N1CCc1ccccc1` (stereo not drawn)?
ClpP mod: 2.0%

Results for COc1ccc(C(C)(O)c2nc(-c3cccc(NC(C)=O)c3)cs2)cc1 (stereo not drawn) ?
ClpP mod: -1.1%

Results for COc1cccc(C(O)c2nc(-c3ccc4ccccc4c3)cs2)c1 (stereo not drawn) ?
ClpP mod: -15%

How did CN(C)CCN(Cc1ccccc1)C(c1cc2ccccc2o1)c1nnnn1C(C)(C)C (stereo not drawn) do in these assays?
ClpP mod: -0.9%

Results for CC1=C(C(=O)OCc2ccccc2)N2C(=O)[C@@H](NC(=O)OCc3ccccc3)[C@H]2SC1 ?
ClpP mod: -4.8%

How did COc1cc(-c2nn3c(-c4cc(-c5ccccc5)n[nH]4)nnc3s2)cc(OC)c1OC do in these assays?
ClpP mod: inconclusive

What do the screens show for `O=C(NCc1cccnc1)C1Cc2c(-c3ccc(Cl)cc3)ccnc2O1` (stereo not drawn)?
ClpP mod: -3.2%

How did CNC(=O)C1Cc2c(-c3ccc(Cl)cc3)ccnc2O1 (stereo not drawn) do in these assays?
ClpP mod: -5.8%

Results for CC(C)[C@@H]1Cc2[nH]n(C)c(=O)c2[C@H](c2ccc(Cl)cc2)O1 ?
ClpP mod: 1.0%

How did COc1ccc(-c2csc(C(O)(c3ccccc3)C(F)(F)F)n2)cn1 (stereo not drawn) do in these assays?
ClpP mod: -0.5%

What do the screens show for `COc1ccc(C(O)c2nc(-c3ccc(F)cc3OC)cs2)cc1` (stereo not drawn)?
ClpP mod: -2.0%

What do the screens show for `COc1ccc(C(=O)N2CCCC(c3cc(C(=O)NCc4ccccc4)no3)C2)cc1` (stereo not drawn)?
ClpP mod: -0.8%

How did COc1ccc(NC(=O)c2sc(=O)n(Cc3ccc(S(=O)(=O)N(C)C)cc3)c2C)cc1 do in these assays?
ClpP mod: 0.3%

What do the screens show for `CC[C@@H](NC(=O)[C@H](Cc1ccccc1)NC(=O)CC[C@H]1O[C@@H](n2ccc(=O)[nH]c2=O)[C@H](O)[C@@H]1O)c1ccccc1`?
ClpP mod: 0.3%

How did CCNC(=O)C1(C)CCCN(C(=O)c2sccc2C)C1 (stereo not drawn) do in these assays?
ClpP mod: 0.7%

Screens from PubChem.

This is a subset (hit frequency here may not be typical).
